High-throughput results: PubChem BioAssay, National Center for Advancing Translational Sciences (NCATS)
HTT promoter inh: inhibits huntingtin promoter activity | Potency, µM (series often up to 57.5 µM), for the others: at the top dose activity change, negative = inhibition, most hits filed as inhibitors | HEK293 HTT promoter firefly luciferase reporter (activity 0% = vehicle and -100% = no light), 24 h | AID 1508623 | 48,000 tested, 0.93% active; active = well fitted inhibition curve with a large enough effect; inconclusive = small, poorly fitted or top-dose-only effect; inactive = no such curve, though single readings can be large or run the other way; also: nearly all actives have a fitted effect of over 50% in size
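Quantitative HTS used concentration series of up to 57.5 uM final on HEK293 luciferase reporter cells, 24 h at 37 degrees C. Readout was Dual-Glo firefly luminescence.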
PMP22 txn prim: modulates PMP22 transcription in S16 Schwann cells; S16 Pmp22-F2sN Schwann cells (luciferase reporters placed in the Pmp22 gene), FLuc/NLuc coincidence luminescence, 24 h; Potency, µM (doses to about 57.5 µM), without a hit: at the highest dose activity change, negative = inhibition, usual class: inhibitors; 43,000 tested, 2% active; active = clear falling dose curves in both reporters; inconclusive = both reporters move, but less clearly or upward; inactive = either reporter flat; the % is the NLuc reporter signal; also: % is scaled to controls: 0 for no effect and ±100 for the full control effect; some results filed as inactive show a strong effect at the top dose
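Luminescent read-out of sequential FLuc and NLuc signals from a reporter embedded in the Pmp22 3' UTR of S16 Schwann cells, taken after 24 h compound exposure at 37C; compounds reducing both signals score as inhibitors of expression.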
Active calls of the source: *; ? = inconclusive; . = no result given; [ ] = another dose, or the depositor's remark. Potency is read from the fitted curve at half-maximal effect.

| SMILES | PMP22 txn prim | HTT promoter inh |
| --- | --- | --- |
| COc1ccc(CCNC(=O)c2ccc3c(c2)CCN3S(=O)(=O)c2ccccc2)cc1 | -27.0% | ? |
| Cc1ccc(OCCCn2c(C3CC(=O)N(c4cccc(Cl)c4)C3)nc3ccccc32)c(C)c1 (stereo not given) | ? | ? |
| Cc1ccc(Cl)cc1NC(=O)CCC(=O)N1CC(C)Sc2ccccc21 (stereo not given) | -3.7% | -29.1% |
| Cc1ccccc1CNC(=O)CN1C(=O)CSc2ccc(S(=O)(=O)N(C)C)cc21 | -14.4% | -10.8% |
| COc1ccc(-c2cc3ccc(O)c(CN4CCCC(C)C4)c3oc2=O)cc1 (stereo not given) | 3.5% | -22.2% |
| CCOC(=O)c1sc2ncn(CC(=O)Nc3ccc(OC)c(Cl)c3)c(=O)c2c1C | -3.6% | -0.4% |
| Cc1nc2ncnn2c(C)c1CCC(=O)N1CCN(c2ccccc2)CC1 | -5.5% | -2.5% |
| COc1ccc(N2CC(NC(=O)c3ccc4c(c3)OCO4)CC2=O)cc1OC (stereo not given) | 13.7% | -11.8% |
| CC(=O)c1cccc(NS(=O)(=O)c2cc3c(cc2C)n(C)c(=O)c(=O)n3C)c1 | -22.2% | 0.1% |
| CCSc1nc2n(n1)C(c1ccc(Cl)cc1Cl)C(C(=O)Nc1ccccc1C)=C(C)N2 (stereo not given) | ? | -21.8% |
| Cc1nc2cccnc2n1-c1cccc(C(=O)NCCN(C)C)c1 | -0.5% | -5.8% |
| CCC1=C(c2ccc(C)cc2)S(=O)(=O)N=C1N1CCC(C(=O)NCCc2cccc(OC)c2)CC1 | 8.2% | ? |
| COc1ccc(OC)c(CNCc2c(C(=O)O)n(Cc3cccc(F)c3)c3cc(OC)ccc23)c1 | 1.3% | -13.6% |
| CC(=O)c1ccc(NC(=O)Cn2cc(S(=O)(=O)Cc3ccccc3Cl)c3ccccc32)cc1 | -33.8% | -24.5% |
| CN(C(=O)c1cc2c(=O)n3ccccc3nc2n1C)c1ccccc1 | -0.9% | 83.4%[activator] |
| COc1cccc(-n2c(=O)c3c(C)c(C(=O)N(C)C)sc3n(Cc3cccc(C)c3)c2=O)c1 | -29.1% | -4.2% |
| COc1ccc(OCC(=O)NCC2(N3CCN(C)CC3)CCCCC2)cc1 | -19.1% | -3.9% |
| COc1ccccc1N1CCN(C(=O)Cn2ncc3ccsc3c2=O)CC1 | -28.8% | -3.6% |
| Cc1nn(S(=O)(=O)c2ccc(C(C)(C)C)cc2)c(C)c1S(=O)(=O)N1CCC(C)CC1 | 6.7% | -9.3% |
| COc1cccc(CNC(=O)CCc2c(C)nc3c(c2C)c(=O)n(C)c(=O)n3C)c1 | -11.7% | -3.3% |
| Cc1cccc(CC(=O)NC2CC(=O)N(c3ccccc3)C2)c1 (stereo not given) | 8.8% | -14.4% |
| COc1cccc(CNC(=O)COCc2cc(-c3ccc4c(c3)OCO4)on2)c1 | -35.7% | ? |
| CC1=Nc2cc(C(=O)NCc3ccc(C)cc3)ccc2Sc2ccc(Cl)cc21 | -6.3% | -15.5% |
| CCCC(=O)n1nc(-c2ccco2)nc1NCc1ccccc1Cl | ? | 2.9% |
| CC(Oc1ccccc1)C(=O)OCc1cc(=O)n2nc(C(C)C)sc2n1 (stereo not given) | -0.3% | -22.0% |
| CC1=C(C(N)=O)C(c2ccc(C(C)C)cc2)n2nc(SCc3ccccc3F)nc2N1 (stereo not given) | 2.7% | -12.4% |
| CCCCOc1ccc(Cn2c(=O)sc3ccccc32)cc1OC | -3.2% | ? |
| COc1cccc(-n2c(=O)c3sc4ccccc4c3n(CC(=O)Nc3cccc(Cl)c3)c2=O)c1 | 1.3% | -21.4% |
| Fc1ccc(-c2cc(-c3ccccc3)c3c(n2)-c2cc(F)ccc2OC3)cc1 | -5.7% | -14.2% |
| O=C(NCC1CCCCN1)c1cc(OCC(F)(F)F)ccc1OCC(F)(F)F (stereo not given) | . | ? |
| COc1ccc(CNc2nc(-c3ccccc3)nn2S(=O)(=O)c2ccccc2)cc1 | -11.8% | -7.7% |
| O=C(Cn1c(=O)n(Cc2ccc3c(c2)OCO3)c(=O)c2ccc(C(=O)NC3CCCCC3)cc21)Nc1ccccc1F | ? | -17.8% |
| O=C(NCc1cccc(F)c1)c1ccccc1NC(=O)c1nsc2ccccc12 | -51.4% | -1.6% |
| Cc1ccc(/C=C/c2nc3ccccc3[nH]2)cc1 | ? | -68.0% |
| C[C@H]1C[C@H]2[C@@H]3CCC4=CC(=O)C=C[C@]4(C)[C@@H]3C(=O)C[C@]2(C)[C@@]1(O)C(=O)CO | . | -23.2% |
| O=C(Nc1ccc(C(=O)N2CCN(c3ccccc3F)CC2)cc1)c1nsc2ccccc12 | -4.5% | -21.2% |
| CC(CNC(=O)CCS(=O)(=O)c1cc2c(cc1Cl)NC(=O)CO2)c1ccccc1 (stereo not given) | 0.1% | 11.1% |
| Cc1ccc(CNc2ncnc3c2cnn3-c2ccc(C)cc2C)cc1 | -6.5% | -14.0% |
| Cc1scc(CN2CCN(c3ccccc3F)CC2)c1C | -16.4% | 0.7% |
| Cc1ccc(CNC(=O)CSc2c3c(nc4ccc(Cl)cc24)CCCC3)cc1 | 10µM* | -12.2% |
| Cc1ccc(CNC(=O)CN2N=C(c3ccc(C)cc3)CCC2=O)cc1 | ? | -3.7% |
| O=C(c1cc(-c2ccccc2O)on1)N1CCCCC1 | ? | 80.3%[activator] |
| CC(=O)NC[C@H]1CN(c2ccc(N3CCOCC3)c(F)c2)C(=O)O1 | . | 3.9% |
| CCc1cccc(C)c1NC(=O)CSc1nnc(N)s1 | 11.4% | -8.9% |
| CCn1c(SCC(=O)N2CCC(C)CC2)nnc1-c1ccccc1O | 24.4% | -20.3% |

Three entries out of the list above, arranged by their value in HTT promoter inh, high to low.
| Molecule | HTT promoter inh |
| --- | --- |
| Cc1scc(CN2CCN(c3ccccc3F)CC2)c1C | 0.7% |
| Cc1ccc(CNC(=O)CSc2c3c(nc4ccc(Cl)cc24)CCCC3)cc1 | -12.2% |
| CCn1c(SCC(=O)N2CCC(C)CC2)nnc1-c1ccccc1O | -20.3% |

(further entries)
| SMILES | PMP22 txn prim | HTT promoter inh |
| --- | --- | --- |
| O=C(Nc1ccc(F)c(Cl)c1)C1CCCN1S(=O)(=O)c1ccc(F)cc1 (stereo not given) | -26.5% | ? |
| COc1ccc(C)cc1NC(=O)c1ccc2c(c1)N(Cc1cccc(Cl)c1)C(=O)c1ccccc1S2=O (stereo not given) | -16.5% | -1.9% |
| Cc1cc(C)c(OCC(=O)N(Cc2ccc(N(C)C)cc2)CC2CCCO2)c(C)c1 (stereo not given) | ? | -29.0% |
| O=C(CSc1oc(-c2ccco2)nc1S(=O)(=O)c1ccc(Br)cc1)c1ccccc1 | ? | -19.5% |
| COc1cccc(NC(=O)/C(C#N)=C\c2cn(Cc3ccc(Cl)cc3)c3ccccc23)c1 | -18.4% | ? |
| CC(=O)O[C@@H]1CC2C3CCc4cc(OC(=O)c5ccccc5)ccc4C3CCC2(C)[C@H]1OC(C)=O (stereo not given in full) | . | -4.4% |
| Cc1ccc2c(c1)c1c(c(=O)n(Cc3ccccc3)c(=O)n1CC(=O)Nc1ccccc1C)n2C | -3.1% | -5.5% |
| CC1=C(C(N)=O)C(c2cccc(Br)c2)n2nc(SCc3ccccc3Cl)nc2N1 (stereo not given) | -12.6% | -5.5% |
| COCCNC(=O)c1ccc2c(c1)N(Cc1cc(C)ccc1C)C(=O)c1ccccc1S2(=O)=O | 11.0% | -12.4% |
| CC(C)(C)OC(=O)N1CCC(c2c(C(=O)Nc3ccc4c(c3)OCCO4)cnn2-c2ccc(F)cc2)CC1 | ? | -13.5% |
| Cc1ccc(Cl)cc1N1CCN(C(=O)Cn2c(-c3cccs3)cc3cc(F)ccc32)CC1 | 4.4% | -23.5% |
| COc1ccccc1N1CCN(c2ccc(=O)n(CC(=O)Nc3ccc(F)c(F)c3)n2)CC1 | -8.2% | -20.7% |
| CCOc1ccc(NC(=O)CN(c2ccc(CC)cc2)S(=O)(=O)c2c(C)noc2C)cc1 | -15.6% | -25.8% |
| COc1ccc(-c2oc3ncn4nc(COc5ccc(Cl)cc5)nc4c3c2-c2ccc(OC)cc2)cc1 | -2.3% | -4.1% |
| COc1ccc(-c2noc(CCC(=O)Nc3ccc(C(F)(F)F)cc3)n2)cc1 | -27.6% | ? |
| COc1ccc(CCNC(=O)Cn2ccc3cc(S(=O)(=O)N4CCCCC4)ccc32)cc1OC | -18.8% | ? |
| COc1ccc(OC)c(S(=O)(=O)N2Cc3ccccc3CC2C(=O)Nc2ccc(C(C)=O)cc2)c1 (stereo not given) | -9.2% | -11.2% |
| CCOc1ccc(NC(=O)c2sc3nc4c(c(-c5ccccc5)c3c2N)C(=O)CC(C)(C)C4)cc1 | 55.7% | -20.3% |
| COc1cc(OC)c(OC)cc1CN1CCc2nc(N3CCN(c4ncccn4)CC3)ncc2C1 | ? | ? |
| Cc1ccc(NC(=O)C(=O)NCC(c2cccnc2)N2CCN(Cc3ccccc3)CC2)cc1F (stereo not given) | ? | -32.3% |
| CCC1(c2ccccc2)C(=O)NCNC1=O | . | ? |
| COc1ccc(CNC(=O)c2cc3c(=O)n(Cc4cccnc4)ccc3nc2C)cc1 | 2.7% | -6.2% |
| COc1cccc(C(=O)NCCc2csc(-c3cccc(F)c3)n2)c1OC | ? | -18.9% |
| Cc1cccc(N2CCN(C(=O)CCn3c(=O)c4cccn4c4cccnc43)CC2)c1C | -28.3% | -6.3% |
| CCOC(=O)c1cc(S(=O)(=O)Nc2ccc(OC)c(Cl)c2)[nH]n1 | 8.3% | -12.1% |
| O=c1c2sc3ccccc3c2n(Cc2ccc(Cl)cc2)c(=O)n1Cc1ccco1 | ? | -1.2% |
| CCCCOc1ccc(C(=O)N(Cc2nc(-c3ccc(Cl)cc3)no2)C(C)C)cc1 | ? | -19.9% |
| CCCOc1ccc(CNC(=O)c2cc3oc4ccccc4c3n2C)cc1 | -4.8% | ? |
| CCOc1ccc(NC(=O)Cn2cnc3sc(C)c(S(=O)(=O)N4CCN(c5ccccc5OC)CC4)c3c2=O)cc1 | -54.5% | -20.5% |
| COc1cc2c(cc1NC(=O)COc1ccc(Br)cc1)oc1ccccc12 | ? | 12.0%[11.5 µM] |
| COc1ccc(CCNC(=O)c2nn(-c3ccc(C)cc3)c(=O)c3c2c2ccccc2n3C)cc1OC | 10.1% | -7.2% |
| Cc1nc2nc(SCC(=O)NCCc3ccccc3)nn2c(C)c1Cc1c(F)cccc1Cl | ? | -4.4% |
| COc1ccc(C(=O)Nc2cc(C(C)C)c(O)c(S(=O)(=O)c3ccc(Cl)cc3)c2C)cc1 | 18.5% | -5.3% |
| CCCn1cc(S(=O)(=O)c2ccc(C)c(C)c2)c(=O)c2cc(F)c(N3CCCCC3)cc21 | 0.2% | -4.7% |
| COc1ccc(C(=O)N2CCC(c3ccncc3)CC2)cc1OC | -21.6% | ? |
| COc1ccc(CCNC(=O)c2cc3c(-c4ccccc4F)nn(C)c3s2)c(OC)c1 | ? | ? |
| CCN(c1ccccc1)c1ncnc2c1cnn2-c1ccc(OC)cc1 | -3.8% | 9.5% |
| Cc1nn(Cc2noc(C(=O)NC(C)c3ccccc3)n2)c(C)c1Br (stereo not given) | -3.7% | -17.7% |
| Cc1cc(C)cc(NC(=O)Cc2c(C(=O)O)c(C)cn2C)c1 | 21.8% | -7.0% |
| COc1ccc(Cn2c(=O)c3oc4ccccc4c3n(Cc3ccc(F)cc3)c2=O)cc1 | -14.4% | -3.8% |
| COc1ccc(C2=Nc3ccccc3NC(c3cccs3)=N2)cc1 | -1.1% | -22.2% |
| O=C(CSc1ccc2nc(-c3ccccc3)cn2n1)Nc1ccccc1C(F)(F)F | 6.3% | ? |
| CC(C)c1ccc(CNC(=O)c2ccc(N3CCCC3)c(NC(=O)NCc3ccccc3)c2)cc1 | ? | 25.1µM* |
| Cc1ccc(CCNc2ncnc3onc(-c4ccc(F)cc4)c23)cc1 | -1.6% | 3.9% |
| Cc1nc(-c2ccc(S(=O)(=O)N(C)Cc3ccccc3)cc2)co1 | -7.4% | -3.9% |
| CCc1cccc(C)c1NC(=O)Nc1csc2c1CCCC2 | 2.4% | ? |
| Cc1ccc(-c2nnc(Nc3ccc(Cl)c(Cl)c3)c3ccccc23)cc1S(=O)(=O)N(C)C | ? | -23.4% |
| COc1ccc(-n2nc(C(=O)Nc3cc(C)ccn3)c3c4ccccc4n(C)c3c2=O)cc1Cl | -25.2% | 20.2% |
| CCCN1CCN(CCCNC(=O)c2ccc3c(c2)sc2nc(-c4ccc(C)cc4)cn23)CC1 | ? | -29.9% |
| CCOCCCNC(=O)C1CCN(c2cc(C)nc3c(-c4ccc(Cl)cc4)c(C)nn23)CC1 | 10.4% | -7.1% |
| COc1ccccc1CNC(=O)C(NS(=O)(=O)c1cccs1)C(C)C (stereo not given) | ? | -12.5% |
| CN(C)CCNC(=O)c1ccc(-c2nn(C)c(=O)c3ccccc23)cc1 | ? | 1.1% |
| CCn1cc(C(=O)NCc2ccc(C)cc2)c(=O)c2cc(S(=O)(=O)N3CCCCCC3)ccc21 | -9.7% | -6.0% |
| Cc1ccc(-n2ncc(C(=O)NCCN3CCCC3)c2C2CCN(C(=O)OC(C)(C)C)CC2)cc1 | ? | -2.0% |
| CCOC(=O)c1c(C)c(C(=O)NCc2ccc(Cl)cc2)c(C)n1C | -20.3% | -5.9% |
| CCCc1cc(=O)[nH]c(SCC(=O)N2CCN(c3ccccc3OC)CC2)n1 | -1.7% | -1.1% |
